BJeLR viability = kills HRASV12-expressing BJeLR cells. BJeLR (HRASV12) viability, CellTiter-Glo ATP luminescence, 48 h; reference of the scale not given here. inhibition, % (test concentration not listed). 300,000 tested, 0.17% active. AID 1554;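 active = replicate mean above 50%; inconclusive = above 50% but judged a plate artefact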;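 note: 50 nL library stock added to about 25 µL; numbers are from one replicate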
PrP UTR inh = suppresses PrP 5' UTR mRNA reporter expression; cell-based PrP 5' UTR mRNA reporter, plate reader; inhibition, % (test concentration not listed); 340,000 tested, 0.35% active; AID 488862;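 active = every replicate at 50% or more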;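 note: 0 = median of the neutral control wells; tested in H4 reporter cells; numbers are from one replicate; inactives centre near -14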
Autofluor counter = counter-screen for toxin protease inhibitors: compound fluorescence. 360,000 tested, 3.1% active. fluorescence intensity (concentration not given with the values). compound autofluorescence counterscreen, microsphere flow cytometry; stronger effect = higher value;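 active = at least 3 SD above the mean of all compounds, about 16000 in these data; inconclusive = too few beads counted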;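 note: 100 nL of 1 mM stock went into each well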
ugtP null kill = compounds lethal to S. aureus RN4220 ugtP deletion mutant | OD600 growth, 16 h; some inactives read as strong as hits | growth inhibition, % (concentration not given with the values) | 330,000 tested, 0.54% active | AID 1259309;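 active = z-score under -3 and OD600 up to 0.15 on both plates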;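 note: plate controls were untreated wells for no effect and antibiotic for full effect; wells of about 80 µL received 100 nL stock; the first replicate is given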
Sa RN4220 lethal = kills Staphylococcus aureus RN4220; 330,000 tested, 0.33% active; inhibition, % (concentration not given with the values); AID 1259311; S. aureus RN4220 growth, OD600, 16 h;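 active = z-score of -3 or lower and OD600 up to 0.18 on both plates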;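 note: plate controls were untreated cells for no effect and reference antibiotic for full effect; stock transfer was 100 nL into about 80 µL; one replicate is shown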
Mtb hypoxia inh = Mtb hypoxia fluorescent reporter inhibition. M. tuberculosis hypoxia-regulated fluorescent reporter, fluorescence. fluorescence inhibition, % (test concentration not listed). 300,000 tested, 0.1% active. AID 1159583;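 active = 35 to 45% if threefold the growth effect, above 45% if 1.5-fold the growth effect; inactive = the rest, general growth blockers included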;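 note: wells of about 50 µL received 100 nL stock; 0% = vehicle wells and 100% = reference inhibitor wells; whole bacteria with a GFP reporter of the hypoxia response; strong numbers were not always called active; many hits fall short of the cut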
Mtb hypoxia inh growth = further read-out of Mtb hypoxia inh, marked with its call; growth inhibition, %; measured here: M. tuberculosis growth (absorbance);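 0% = vehicle and 100% = reference antibiotic; read after six days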
An asterisk follows results filed as active; ? = inconclusive; . = no result given; & = joins results of further samples.

Values in the order: BJeLR viability	PrP UTR inh	Autofluor counter	ugtP null kill	Sa RN4220 lethal	Mtb hypoxia inh	Mtb hypoxia inh growth
> CCN(CC)S(=O)(=O)c1ccc(C(=O)N(c2ccc(C)cc2)C2C=CS(=O)(=O)C2)cc1 (stereo not given)
    0	-1	.	8	4.5	-4	4
> O=C(CCS(=O)(=O)c1ccccc1Cl)NCc1ccc(F)cc1
    0	11	5523	2	3.6	0	10
> COc1ccc(OCC(=O)Nc2cc3c(cc2C(=O)O)OCCCO3)cc1
    -11	-1	3745	.	.	.	.
> COc1cc(CNCCc2c[nH]c3ccccc23)cc(Cl)c1OCC(N)=O
    -9	17	4172	5	15	-6	-2
> Cc1cc(NN=Cc2ccccc2F)nc(NCc2ccccc2)n1
    .	.	.	-4	1.4	-17	-8
> c1ccc(CN2CCN(c3nc4ccccc4s3)CC2)cc1
    -7	-52	3318	13	2.5	2	-3
> Cc1ccc(SCc2cc(=O)c3c(=O)n(-c4ccccc4)[nH]c3[nH]2)cc1
    -3	-15	3679	5	7.5	9	6
> Nc1ccc(-c2nc3ccccc3s2)cn1
    -13	-82	4994	-3	3.7	-2	3
> C(=NNc1nc(-c2ccccc2)cc(-c2ccccc2)n1)c1cccnc1
    .	.	.	-26	6.2	1	16
> COc1cccc(S(=O)(=O)NCc2ccc(C(=O)Nc3cccc(Cl)c3)cc2)c1
    -1	-18	4637	-9	-7.3	.	.
> Cc1ccc(C)c(NC(=O)CN(C)C(=O)C2CCN(C(=O)Nc3ccccc3)CC2)c1
    7	9	?	4	0.5	-1	3
> CCOC(=O)C1C(=O)CC(=O)CC1CC(C)SCC (stereo not given)
    -1	-30	9754	4	1.9	0	9
> CCOC(=O)/C(C#N)=C/C=C1/C=CC=CN1C
    2	-38	3559	2	3.8	6	3
> COc1ccc(Cn2c(C(C)C)nc3sc4ccccc4c(=O)c3c2=O)cc1
    5	-16	.	-9	-1.0	-7	5
> COc1ccccc1NC(=O)/C(C#N)=C/c1ccc(OCCN2CCOCC2)c(OC)c1
    -11	-2	5337	3	3.8	8	6
> CC1(C)CC2CC(C)(CN2S(=O)(=O)c2ccc(C(=O)Nc3ccc(S(=O)(=O)N4CCOCC4)cc3)cc2)C1 (stereo not given)
    27	-19	2190	-10	-1.3	7	0
> CC(NC(=O)c1nc[nH]c1C(=O)N1CCc2ccccc2C1)C(=O)OCc1ccccc1 (stereo not given)
    .	.	.	-2	4.6	5	12
> CCCCCNC(=O)c1ccc2c(=O)n(CCCN3CCCC3=O)c(=S)[nH]c2c1
    13	-17	3910	9	17	4	9
> CC1(C)N=C(N)N=C(N)N1c1ccc(OCCCOc2ccccc2)c(Cl)c1
    43	-13	3674	34	-1.9	7	-4
> Cn1c(SCC(=O)NC(=O)Cc2ccccc2)nnc1-c1ccc(F)cc1
    .	-10	4377	4	3.6	16	10
> CCOC(=O)CSCc1cn2cc(Cl)ccc2n1
    -9	-7	11085	1	2.2	0	6
> COc1ccc(/C=C(\C#N)C(=O)Nc2cc(C)c(Cl)cc2OC)cc1O
    7	12	3671	5	4.1	14	11
> COc1[nH]c2ccc(F)cc2c1C(=O)OCC1CCN(CCNS(C)(=O)=O)CC1
    4	51	5600	0	5.7	-1	3
> CN(C)CCCN(C(=O)c1ccc(S(=O)(=O)N2CCCCC2)cc1)c1nc2cc3c(cc2s1)OCO3
    -10	-13	6256	3	-2.3	-4	-5
> COc1cccc(NC(=O)c2ncc(Cl)c(Cl)c2Cl)c1
    11	-46	4268	3	3.4	1	6
> COc1ccc(-c2ccc(C(C)=O)cc2)cc1[C@H]1[C@H]2C=CC[C@@H](C)[C@@H]2C(=O)N1Cc1ccccc1
    0	-12	3754	.	.	.	.
> O=C(NCC1CCCO1)c1nn2c(C(F)(F)F)cc(-c3ccco3)nc2c1Cl (stereo not given)
    -4	-17	5131	5	3.7	8	6
> Cc1cc2ncc(Cl)nc2cc1C
    1	-39	2192	2	5.2	1	-2
> CC(Sc1n[nH]c(N)n1)C(=O)NC1CCCCC1C (stereo not given)
    3	-16	?	13	6.3	6	4
> O=C(NCCN1C(=O)S/C(=C\c2ccccc2F)C1=O)C1CCCN1C(=O)c1cccs1 (stereo not given)
    2	2	2541	0	4.0	8	9
> O=C(CSc1nnc(CNC(=O)c2cccs2)o1)Nc1ccccc1F
    -10	5	4694	7	3.6	0	-8
> N/C(=N\OC(=O)c1ccc(Cl)cc1)c1[nH]ncc1Br
    13	-68	4428	51	1.9	2	6
> Cc1[nH]nc(N=CC2=C(O)CC(c3ccco3)CC2=O)c1-c1ccccc1 (stereo not given)
    -11	-27&-4	?	24&12	1.2&-5.7	8&3	2&1
> COc1ccc(OCC(=O)N/N=C2\CCCCc3ccccc32)cc1
    -19	-41	3250	.	.	.	.
> Cc1cc2occ(CC(=O)Nc3nccs3)c2cc1C(C)C
    -5	-21	22242*	-7	14	6	3
> COC(=O)c1ccc(C23CC4(C2)[C@H](CN(C)[C@@H]4c2ccccc2)C3c2ccccc2)cc1 (stereo not given in full)
    11	0	4211	.	.	.	.
> Cc1cc(Sc2nnc(/N=C/N(C)C)s2)c2ccccc2n1
    -20	2	3655	.	.	.	.
> O=C(c1ccccc1Cl)N(Cc1ccc(Br)cc1)N1C(=O)CCC1=O
    -1	-26	4570	7	5.5	-4	-12
> COc1ccc(Cl)cc1C(=O)Nc1ccc(NC(=O)c2ccco2)cc1
    12	-7	2887	-2	3.5	-6	-3
> CCc1ccc(NC(=O)Cn2nnc(C(=O)NCc3ccc4c(c3)OCO4)c2N)cc1
    -8	-16	4404	5	3.0	-4	-11
> Fc1ccc(-c2nnc3ccc(N4CCCC4)nn23)cc1
    -6	-14	6458	.	.	.	.
> CC(=NNC(=O)c1ccccc1-n1cccc1)C1CC1
    .	.	.	2	3.4	-4	1
> Cc1ccc2ccc(S(=O)(=O)NCc3ccco3)cc2c1
    0	-14	3720	6	7.3	5	13
> COc1ccc(-c2noc(CNS(=O)(=O)c3ccccc3)n2)cc1
    4	-5	4928	0	2.7	4	12
> CSCCC(NC(=O)c1ccccc1)C(=O)Nc1ccc(NC(C)=O)cc1 (stereo not given)
    -2	.	.	6	8.0	-8	-9
> CN(C)S(=O)(=O)c1ccc(N2CCCC2)c(C(=O)NNC(=O)COc2ccccc2Cl)c1
    0	-17	5102	6	3.0	4	2
> CCC(C)N=C1CC(C)(C)CC(=O)/C1=C(\O)Cc1ccccc1 (stereo not given)
    .	.	.	3	0.9	-2	0
> COc1cccc(CN2CC(C(=O)NCCCn3ccnc3C)CCC2=O)c1 (stereo not given)
    5	-14	5813	2	1.3	1	3
> FC(F)(F)c1cccc(NC(=S)Nc2ccc(Cl)c(Cl)c2)c1
    18	-12	3849	101*	101*	10	10
> CCN(CC)CCN1C(=O)C(=O)/C(=C(/O)c2c(C)[nH]c(C(=O)OC)c2C)C1c1cccnc1 (stereo not given)
    .	-14&-17	4444	3	2.1	3	9

Further compounds:
Values in the order: BJeLR viability	PrP UTR inh	Autofluor counter	ugtP null kill	Sa RN4220 lethal	Mtb hypoxia inh	Mtb hypoxia inh growth
> O=C(NCc1ccccn1)c1ccc(=O)oc1
    -1	-7	4173	6	1.8	7	1
> COc1ccc(/C=N/NC2=NS(=O)(=O)c3ccccc32)cc1OC(C)=O
    6	-3	3534	.	.	.	.
> Cc1ccc(C)c(N(C(=O)c2ccco2)C(C(=O)NC2CCCC2)c2ccco2)c1 (stereo not given)
    1	-24	3088	9	2.2	17	3
> O=C1CCCC=CCC(CC(=O)N(CCO)Cc2ccccc2)C(=O)NCCO1 (stereo not given)
    .	.	.	-5	5.2	8	2
> CCOc1ccccc1N1CCN(C(=O)[C@@H]2CCCN2C2=NS(=O)(=O)c3ccccc32)CC1
    .	-12	8099	6	2.6	8	4
> C(#Cc1c(-c2ccsc2)sc2ccccc12)c1ccsc1
    .	-28	4112	22	-6.9	7	6
> Cc1ccc(S(=O)(=O)N2CCOCC2)cc1C(=O)N1CCC(Cc2ccccc2)CC1
    0	-20	6223	2	1.4	0	-1
> COCc1c(C(=O)N/N=C/c2c[nH]c3ccccc23)nnn1-c1nonc1N
    0	1	5337	.	.	.	.
> Cc1ccc(C)c(S(=O)(=O)N/N=C/c2ccc(F)cc2)c1
    -2	-15	4768	.	.	.	.
> CCc1cccc(CC)c1-n1c(SCn2nnc3ccccc3c2=O)nnc1-c1cccnc1
    7	-13	2317	1	13	.	.
> COc1ccccc1CN1CCNC(=O)C1CC(=O)N(C)Cc1ccon1 (stereo not given)
    0	-7	2135	5	7.5	-9	-3
> O=C(CSc1nccn1-c1cccc(Cl)c1)NC1CCCC1
    -4	-17	4935	0	-2.8	.	.
> NC(=O)CC(NC(=O)Cc1cccc2ccccc12)c1ccc(NCc2ccccc2)c([N+](=O)[O-])c1 (stereo not given)
    -3	-25	4108	.	.	.	.
> CCN1CCN(C(=O)c2ccc3c(=O)n(C4CCCC4)c(=S)[nH]c3c2)CC1
    12	-31	9141	-5	6.8	14	7
> O=C(NCc1cccs1)C1CCN(c2ccc(S(=O)(=O)N3CCOCC3)cc2Cl)CC1
    19	1	7697	9	-0.2	3	4
> COc1ccc(OC)c(C2C=C(c3ccc(C)c(C)c3)Nc3nnnn32)c1 (stereo not given)
    31	69*	2451	-1	2.7	-1	2
> Cn1c(=O)c2c(nc(CN3CCc4ccccc4C3)n2Cc2ccc(Cl)cc2)n(C)c1=O
    6	-38	7278	5	4.8	-2	-11
> CN(c1ccccc1)S(=O)(=O)c1ccc(Cl)c(C(=O)NC2=NCCS2)c1
    2	-5	4453	0	5.9	9	0
> Cc1ccc(S(=O)(=O)N2CCOCC2)cc1NC(=O)COC(=O)CCC(=O)c1ccc(F)cc1
    .	-7	5735	2	4.7	-1	3
> Nc1cc(N2CCNCC2)ccc1[N+](=O)[O-]
    -13	-29	2694	11	1.4	7	5
> Cc1ccccc1NC(=O)CSc1nc2ccccc2c(=O)n1CC1CCCO1 (stereo not given)
    -11	-16	3981	2	3.1	-5	-1
> COc1ccc(N(CC(=O)N2CCCC2)S(=O)(=O)c2ccc(NC(C)=O)cc2)cc1
    -15	-6	4571	8	7.8	6	2
> O=C(NC1(C(F)(F)F)NC(=O)N(Cc2cccnc2)C1=O)c1ccccc1Cl (stereo not given)
    3	-10	21162*	2	1.9	0	4
> CC(=NN1CCN(c2ccccc2)CC1)c1ccc(O)cc1
    .	.	.	3	1.6	1	1

This is a random part of the collection; about 3.9% have a hit in one of these screens.
